# Screening results as filed in PubChem.
# Rad51 HR inh: blocks human Rad51 in homologous recombination; inhibition, % at 10 µM; hRad51 DNA strand exchange, fluorescence dequenching; 200,000 tested, 0.085% active;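 active = inhibition above 40% at the single screening dose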;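 note: 0% = DMSO control wells and 100% = blanks with heterologous ssDNA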
# Target sequence (Q06609 whole entry, looked up): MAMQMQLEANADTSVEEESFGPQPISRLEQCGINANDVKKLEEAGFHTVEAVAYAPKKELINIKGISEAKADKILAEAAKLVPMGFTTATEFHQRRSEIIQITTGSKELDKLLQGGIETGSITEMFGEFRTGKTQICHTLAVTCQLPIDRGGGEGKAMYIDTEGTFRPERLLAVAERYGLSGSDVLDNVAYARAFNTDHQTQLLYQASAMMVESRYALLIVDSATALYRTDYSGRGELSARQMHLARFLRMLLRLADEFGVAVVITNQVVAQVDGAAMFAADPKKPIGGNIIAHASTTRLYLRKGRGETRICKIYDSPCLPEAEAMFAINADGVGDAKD
#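 Test system: preformed human Rad51 ssDNA filaments. Compound dosing: single dose, 10 µM final compound. Incubation: filaments 15 min 37 °C, then compound 30 min. Technique: FRET fluorescence dequenching, excitation 485 nm, emission 520 nm. Read-out basis: percent inhibition from fluorescence, normalised to plate control and blank means. Benchmarks: plate controls and plate blanks.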
# Thrombin inh: blocks human thrombin protease activity. 220,000 tested, 0.26% active. AID 1046. inhibition, % at 5 µM. P00734. alpha-thrombin, Boc-VPR-AMC fluorogenic substrate cleavage;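 active = inhibition at or above 40%; inactive = inhibition below 40%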;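 note: 0% = enzyme with no compound and 100% = wells without enzyme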
#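 System – human alpha-thrombin protein · Reagent – Boc-VPR-AMC substrate, 15 µM final · Compound – 5 µM single dose in 0.2% DMSO · Schedule – reaction at room temperature · Technique – AMC fluorescence at 355 nm excitation and 460 nm emission · Read-out basis – % inhibition relative to enzyme controls and enzyme-free blanks · Control set – no-compound enzyme wells and no-enzyme blanks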
# KCC2 mod: KCC2 (human) Cl- transport modulation. KCC2 cells, thallium flux FluoZin-2 fluorescence. B-score of Tl+ flux slope (higher = more flux/activation; lower = inhibition) at 10 µM. 190,000 tested, 2.2% active. AID 1456;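 active = thallium flux slope and its plate-corrected score both differing from the plate sample mean at a set confidence after two filtering rounds, in either direction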;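 note: slope of fluorescence scaled to starting intensity during 10 to 20 s after thallium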
# Hck Nef HTS: human Hck-Nef kinase inhibition. Recombinant Hck-YEEI plus Nef, Z-Lyte FRET kinase assay. 220,000 tested, 0.68% active. inhibition, % at 20 µM. P08631;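 active = Hck-Nef kinase inhibition above about 50%, limit read from the data; inactive = inhibition below that limit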;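 note: 0% = DMSO with Hck plus Nef and 100% = Hck alone without Nef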
# Target sequence (P08631 whole entry, looked up): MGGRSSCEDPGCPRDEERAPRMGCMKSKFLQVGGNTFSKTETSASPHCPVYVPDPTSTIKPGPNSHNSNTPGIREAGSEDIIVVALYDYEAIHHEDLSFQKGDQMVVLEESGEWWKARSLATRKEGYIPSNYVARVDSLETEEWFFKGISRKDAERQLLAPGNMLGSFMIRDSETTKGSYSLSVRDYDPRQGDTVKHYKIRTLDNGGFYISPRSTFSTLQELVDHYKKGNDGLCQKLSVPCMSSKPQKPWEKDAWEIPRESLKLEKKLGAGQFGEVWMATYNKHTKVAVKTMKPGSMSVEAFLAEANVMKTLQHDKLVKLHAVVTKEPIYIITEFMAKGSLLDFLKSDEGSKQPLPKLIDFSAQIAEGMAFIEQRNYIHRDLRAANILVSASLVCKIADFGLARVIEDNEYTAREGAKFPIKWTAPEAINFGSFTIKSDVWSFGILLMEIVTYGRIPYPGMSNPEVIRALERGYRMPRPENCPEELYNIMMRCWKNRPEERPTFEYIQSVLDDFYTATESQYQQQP
# TNF necrop inh: inhibitors of TNF-alpha induced necroptosis in Jurkat FADD-/- cells | Jurkat FADD-/- TNF necroptosis rescue, ATP luminescence, 24 h; 0 = TNF only, 100 = no-TNF cells | activation (protection from cell death), % at 10 µM | 220,000 tested, 0.068% active | AID 463075;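 active = activation, meaning protection from cell death, of at least 50% relative to plate controls; inactive = activation below 50%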;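 note: necroptosis triggered by 40 ng/mL TNF-alpha added together with compound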
# KLK5 inh: inhibitors of human kallikrein 5 | AID 873 | 210,000 tested, 0.59% active | inhibition, % at 5 µM | Q9Y337 | recombinant hK5, fluorogenic AMC substrate cleavage;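 active = inhibition of 40% or more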;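 note: 0% = enzyme controls without compound and 100% = no-enzyme blanks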
# Target sequence (Q9Y337 67-293 limits assumed): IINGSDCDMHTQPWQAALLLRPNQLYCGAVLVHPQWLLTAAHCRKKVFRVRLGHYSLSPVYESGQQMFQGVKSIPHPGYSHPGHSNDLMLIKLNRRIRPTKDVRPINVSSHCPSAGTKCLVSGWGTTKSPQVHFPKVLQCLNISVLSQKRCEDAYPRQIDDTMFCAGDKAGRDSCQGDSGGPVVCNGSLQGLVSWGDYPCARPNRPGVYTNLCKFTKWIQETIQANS
# zVAD death inh: L929 zVAD cell death inhibition; L929 zVAD necroptosis rescue, ATP luminescence, 24 h; with zVAD 60 µM; viability rescue, % at 10 µM; 220,000 tested, 0.38% active; AID 1377;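 active = activation, scaled between plate controls, above about 75%, limit read from the data; inactive = activation under that limit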;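 note: 0% = zVAD with DMSO and 100% = DMSO alone without zVAD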
# Active calls of the source: *; . = no result given.
SMILES,Rad51 HR inh,Thrombin inh,KCC2 mod,Hck Nef HTS,TNF necrop inh,KLK5 inh,zVAD death inh
O=C(CSCc1ccccc1Br)N/N=C/c1ccc(OCC(=O)N2CCCCC2)cc1,-2,2,-2.1,0,-0.4,-6,2.6
O=C(/C=C/NNC(=O)c1cccc(Br)c1)c1cccc(Br)c1,11,1,.,2,1.1,-6,1.1
C/C(=N\NC(=O)c1ccc(NS(=O)(=O)c2cccs2)cc1)c1ccncc1,-29,-9,-1.7,24,-0.3,-7,10
Cc1ccc(C(=O)NCCCN2CCOCC2)cc1N1CCCC1=O,4,4,.,-2,0.5,-4,-0.5
Cn1c(SCC(=O)NCc2ccco2)nnc1-c1c[nH]c2ccccc12,-2,0,.,1,0.3,1,8.0
COc1ccc(S(=O)(=O)N(CCCN2CCOCC2)Cc2cccc3ccccc23)cc1,7,-1,0.4,5,-2.1,1,0.0
CCN(CC)C(=O)CSC(Nc1cccc(F)c1)=C(C#N)C#N,.,-5,-0.57,14,-3.1,-1,-0.7
Cc1ccccc1/C=C\c1nc2ccccc2c(=O)n1Cc1ccccc1,1,-4,-1.4,1,1.2,-8,0.5
NC(=O)C(c1ccc(Sc2ccccc2)nn1)c1ccc(Cl)cc1Cl (centres undefined),0,3,4*,0,0.3,-15,-0.2
COc1ccc(C(=O)Oc2ccc(/C=N/O)cc2)cc1,-8,4,-0.031,0,-4.3,2,0.5
Cn1c(C2CC(=O)N(Cc3ccccc3)C2)nc2ccccc21 (centres undefined),-1,-3,.,1,-0.4,-13,0.5
CN(C)Cc1cc(C(C)(C)C)c(O)c(C(C)(C)C)c1,4,-3,.,-1,-0.9,0,-0.1
O=S(=O)(Cc1cccc(C(F)(F)F)c1)c1ncn[nH]1,-137,-2,1,8,-1.5,1,-0.6
COc1ccc(-n2ncc3c(NC(C)C)ncnc32)cc1,7,-1,.,5,-5.7,-5,0.7
Cc1onc(-c2ccccc2)c1C(=O)N1CCCc2ccccc21,5,-1,-1.6,3,-3.3,-1,-0.2
CN1CCNC(=O)C1CC(=O)NCCc1ccccc1F (centres undefined),1,-11,1.2,23,1.2,-5,1.2
Cc1cc(=O)oc(C)c1C(=O)N[C@@H]1CCCCNC1=O,2,-9,.,0,-0.7,-16,0.5
Cc1cccc(N2CCN(C(=O)c3cn4ccccc4n3)CC2C)c1 (centres undefined),1,-14,-0.41,26,-2.0,-6,2.8
N#Cc1cnc(SCC(=O)c2ccccc2)nc1N,-7,1,0.36,0,-0.5,-28,-0.5
Cc1ccc2cccc(Oc3nnnn3-c3ccccc3)c2n1,-8,-7,.,1,-1.6,1,-0.5
Cc1nn(-c2ccccc2)c2[nH]c(=O)c(CNCC3CCCO3)cc12 (centres undefined),-11,3,0.2,-1,3.4,-17,1.6
CCC(=O)Oc1oc(-c2ccccc2)nc1C=Nc1ccc(C)cc1,8,0,0.038,16,-12,8,0.3
COC(=O)c1ccc(C2/C(=C(/O)c3ccc(OC)cc3)C(=O)C(=O)N2CC2CCCO2)cc1 (centres undefined),0,-6,-0.24,0,-0.7,7,-0.1
CC(C)NC(=O)CNc1ccc(C(F)(F)F)cc1[N+](=O)[O-],-2,2,-0.65,1,-0.6,3,1.9
CC(=O)c1c(C)[nH]c(C(=O)COC(=O)CN(C)S(=O)(=O)c2ccc(Cl)cc2)c1C,-8,5,-0.58,-4,2.7,-9,-0.8
CCC(=O)c1ccc(OCc2ccc(C(=O)OC)o2)c(OC)c1,-8,2,0.62,-18,2.6,-12,-0.7
COc1ccc(C2CC(=O)NC3=C2C(=O)CCC3)cc1Cl (centres undefined),0,-4,0.046,1,-0.2,22,0.8
CC(=O)NS(=O)(=O)c1cccnc1Nc1cccc(Cl)c1C,.,-2,0.12,6,0.5,-10,0.2
Cc1ccc2nc(NCc3ccccc3)c(C=NCc3ccccc3)c(=O)n2c1,.,-3,-0.11,-10,-7.2,-1,.
CN(C)S(=O)(=O)c1cccc(NC(=O)CSc2nc3ccccc3n2-c2ccccc2)c1,.,-11,-1.4,-3,3.9,-15,-0.5
Cc1cccc(N(CC(N)=O)C2SC(=O)N(c3ccccc3)C2=O)c1 (centres undefined),-1,2,.,0,-0.2,3,1.4
COCCn1nnnc1C(c1cc2cc(C)ccc2[nH]c1=O)N1CCc2ccccc21 (centres undefined),-1,-7,-1.1,1,-0.5,-29,0.3
Cc1ccccc1C(=O)Oc1cc(N)n(S(=O)(=O)c2ccccc2)n1,17,4,0.29,-12,0.2,-13,0.8
CC(=O)NC1=NN(C(C)=O)C(c2ccc(C)cc2)S1 (centres undefined),-6,-5,.,18,0.7,-1,0.2
O=S(=O)(Cc1c(F)cccc1Cl)c1ncn[nH]1,1,-3,-2,-4,0.5,-2,5.1
Cc1ccc2cc(C(c3nnnn3Cc3ccccc3)N3CCc4ccccc43)c(=O)[nH]c2c1C (centres undefined),-15,-9,.,3,1.4,-20,-0.4
CN(C)CCCNC(=S)NCCNc1nc2cc3c(cc2cc1C#N)OCO3,0,-1,-0.014,51*,-1.0,-4,3.8
O=C(Nc1ccc(-c2nc3cc(Cl)ccc3o2)cc1)C1CCCO1 (centres undefined),-7,0,-0.39,1,-0.6,-8,0.5
CCN(CC)CC(=O)N1c2ccccc2Oc2c(c(=O)n(C)c(=O)n2C)C1c1cccc([N+](=O)[O-])c1 (centres undefined),16,-2,-0.24,18,-1.7,2,1.7
O=c1cc(O)nc(SCc2ccccc2Cl)[nH]1,-8,-3,0.029,0,-0.3,-14,-0.2
COc1ccc(/C=N/NC(=O)CNC(=O)COc2ccccc2)cc1,-3,-15,-0.82,3,-0.8,-2,1.6
Cc1ccc(-c2cnc(NC(=O)CCC(=O)N(C)Cc3ccccc3)n2C)cc1,-3,-3,-1.2,-1,-1.3,-8,0.1
CCCCn1nnnc1NCc1ccc(OC)c(OC)c1,2,0,.,2,-1.3,-11,-0.3
C/C(=N\NC(=O)c1ccc(NS(=O)(=O)c2cccs2)cc1)c1ccc(Cl)cc1,13,-3,-1.9,-3,2.5,-7,1.9
CC(=O)Nc1ccc(NC(=S)Nc2ccc(F)cc2)cc1,15,-3,0.23,18,1.6,-6,0.3
NS(=O)(=O)c1cccc(NS(=O)(=O)c2cccc(C(F)(F)F)c2)c1,-7,-5,1.9,12,5.2,2,0.4
O=C(/C=C/NNC(=O)c1cccc(Br)c1)c1ccccc1,-3,-7,1.3,-18,8.3,-37,1.0
c1ccc(-c2cnc(-c3cccnc3)o2)cc1,21,1,0.37,10,-14,5,79*
N#Cc1ncn(-c2ccc(Oc3ccccc3)cc2)c1N,7,0,-1.4,74*,-0.7,-24,1.8
CCn1c2ccccc2c2cc(NC(=O)COC(=O)c3cc(S(N)(=O)=O)c(Cl)cc3Cl)ccc21,-6,-6,.,15,1.6,4,-0.8
# The results go on:
SMILES,Rad51 HR inh,Thrombin inh,KCC2 mod,Hck Nef HTS,TNF necrop inh,KLK5 inh,zVAD death inh
Cn1cnnc1SCc1ccc(C(=O)n2ncc(C#N)c2N)cc1,-2,10,-0.08,6,-0.1,-12,1.3
CCCS(=O)(=O)N1CCCC(C(=O)N2CCN(C(=O)OCC)CC2)C1 (centres undefined),69*,-5,-0.24,0,-1.0,2,-0.1
COc1cccc2sc(Nc3nc4ccc(NC(C)=O)cc4s3)nc12,-7,-15,0.059,-1,1.6,-138,0.9
C=CCn1c(CNC(=O)c2ccccc2F)nnc1SCc1nc2ccccc2c(=O)[nH]1,26,-12,-0.32,20,1.5,6,2.6
O=C1CCC(=O)N1c1cccc(-c2nc3ccccc3o2)c1,-5,-8,-0.98,2,0.9,-15,1.2
C=CCSc1nnc2c(n1)[nH]c1c(C)cccc12,-1,-7,.,1,-2.7,-14,-0.3
CCN(CC)C(=O)CSC(Nc1ccc(F)cc1)=C(C#N)C#N,-80,-3,-0.025,20,-6.8,3,0.4
Cc1cc(N/N=C\c2ccc(Br)cc2)nc(-n2nc(C)cc2C)n1,-4,-1,0.87,21,-5.5,-8,-0.4
CCOCC(=O)Nc1cc(C(=O)Nc2cccc(C)c2C)ccc1Cl,0,-2,.,2,0.2,-3,0.1
CCCOc1ccc(C(=O)CCC(=O)OCC(=O)Nc2cc(C)on2)cc1,-2,-11,-0.0048,9,1.1,-18,1.1
COc1cccc(-c2nc(-c3ccc(NC(=O)c4ccncc4)cc3)no2)c1,-3,-1,.,-20,-4.3,3,0.6
O=C(NCCCCNC(=O)c1ccccn1)c1ccccn1,0,7,0.34,19,0.2,4,6.8
COc1cccc(C(=O)n2cnnc2N)c1OC,-2,25,.,1,-1.8,29,-0.1
COc1cc(OC)cc(C(=O)n2nc(C)cc2C)c1,0,18,-0.54,12,-0.6,-3,0.5
Cc1cc(=O)oc2c(C(=O)c3ccccc3)c(OCC(N)=O)ccc12,-6,-3,.,11,-0.4,-4,0.6
O=C(Nc1ccccc1C(=O)O)c1cccc(NC(=O)c2ccc(Br)o2)c1,-5,16,-3.2*,6,-1.2,-10,0.3
CCCCNC(=O)CCC(=O)Nc1ncc(-c2ccc(C)cc2)n1C,4,-8,-1.8,-1,0.0,-14,1.9
CCNC(=O)CC1C(=O)N(c2ccc(OC)cc2)C(=O)N1Cc1ccc(OC)cc1 (centres undefined),-2,1,2,1,-0.2,-4,-0.3
CC(C)(C)c1ccc(OCC(=O)NNC(=O)c2cccnc2)cc1,-3,-13,.,20,1.1,-1,1.5
CC(C)(C)NC(=O)CN(C(=O)CCN1CCCc2ccccc21)C(C)(C)C,-17,0,0.39,-21,1.6,-18,-1.1

# Exported with two lines to a compound: entries from further up.
# Fields – Rad51 HR inh, Thrombin inh, KCC2 mod, Hck Nef HTS, TNF necrop inh, KLK5 inh, zVAD death inh
> COc1cccc(-c2nc(-c3ccc(NC(=O)c4ccncc4)cc3)no2)c1
    -3, -1, ., -20, -4.3, 3, 0.6
> O=C(NCCCCNC(=O)c1ccccn1)c1ccccn1
    0, 7, 0.34, 19, 0.2, 4, 6.8

# The list goes on.
SMILES,Rad51 HR inh,Thrombin inh,KCC2 mod,Hck Nef HTS,TNF necrop inh,KLK5 inh,zVAD death inh
O=C(c1ccc(Cn2cc(Br)cn2)o1)n1cccn1,2,7,-0.33,1,-1.5,6,0.8
CCNC(=O)CC1C(=O)N(c2ccccc2)C(=O)N1CCc1ccc(OC)c(OC)c1 (centres undefined),7,-1,0.38,-10,0.0,7,0.0
Cc1ccccc1-c1nc(-c2ccc(NC(=O)c3ccc(Br)o3)cc2)no1,-1,-2,-0.17,-3,-2.7,-7,0.0
Cc1cc(=O)oc2c(C)c(OCC(=O)N(C)C)ccc12,0,23,0.46,-20,-1.5,0,-0.8
CCn1c(COc2ccc(Cl)cc2)nnc1SCC(=O)Nc1ccc2c(c1)OCO2,10,-1,.,0,0.4,-3,-0.1
COc1ccc2c(c1)Cc1sc(NC(C)=O)nc1-2,-2,-2,-0.72,5,-3.0,2,0.0
COc1cccc(/C=C/C(=O)OCC(=O)c2ccc3c(c2)NC(=O)CO3)c1OC,-8,-3,-0.022,0,-2.4,0,26
CC(=O)c1cc(Cl)ccc1OC(=O)c1ccco1,1,13,0.12,1,-1.2,7,0.1
CCOc1ccccc1C(=O)n1nc2nc(C)cc(C)c2c1N,-9,0,-2.2,0,0.0,6,1.9
O=C(NC1CCCC1)C1CC(c2ccc(F)cc2)=NO1 (centres undefined),-8,-3,0.99,0,5.2,-3,-0.2
S=c1[nH]nc(-c2ccncc2)n1/N=C/C=C/c1ccccc1,13,-3,-0.23,-8,2.3,6,0.7
COc1cccc(C2/C(=C(\O)c3ccc4c(c3)OCCO4)C(=O)C(=O)N2CCN(C)C)c1 (centres undefined),-4,8,.,0,-0.2,4,0.4

# Look-ups from the results shown.
# O=C(c1ccc(Cn2cc(Br)cn2)o1)n1cccn1 in Thrombin inh → 7
# COc1cccc(/C=C/C(=O)OCC(=O)c2ccc3c(c2)NC(=O)CO3)c1OC in TNF necrop inh → -2.4
# COc1ccc2c(c1)Cc1sc(NC(C)=O)nc1-2 in KLK5 inh → 2
# CCNC(=O)CC1C(=O)N(c2ccccc2)C(=O)N1CCc1ccc(OC)c(OC)c1 (centres undefined) in Thrombin inh → -1

# A portion of the library; rates above refer to the full screens.
